Bioassay records from PubChem BioAssay.
Anthrax LT inh: blocks cellular internalization of anthrax lethal toxin; Cells, anthrax lethal toxin internalization, FRET ratio (460/530); actives 0.67% (n = 70,000); Potency, µM (titrated, usually from 40 µM), inactives show at the top dose activity change, negative = inhibition, most hits filed as inhibitors; active = well fitted falling ratio curve with the 530 nm signal flat; inconclusive = other ratio curves, or a change in one channel alone; inactive = flat curves in the ratio and both channels; the % refers to the ratio; also: % is scaled to controls: 0 for no effect and ±100 for the full control effect; nearly all actives have a fitted effect of over 50% in size; tested in ME-180 cells; beta-lactamase reporter
Prx2 Sm inh: Schistosoma mansoni Prx2 inhibition; S. mansoni Prx2 activity coupled to TGR/GSH (TGR is thioredoxin glutathione reductase), NADPH fluorescence loss, qHTS; some inactives read as strong as hits; Potency, µM; actives 0.07% (n = 65,000); active means full or partial inhibition curve with a strong effect at the top dose; inconclusive means weaker partial or single-point curve; inactive means no accepted curve; also: series up to 57 µM; many of its hits are not listed in these tables
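Activity is read as the drop in NADPH fluorescence (365/450 nm), recorded every 30 sec for 8 min after H2O2 addition. Prx2 is coupled to TGR-driven NADPH oxidation through glutathione, in phosphate buffer pH 7.4.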
Starred values were filed as active, the others as inactive; ? = inconclusive; / = no result given; & = joins results of further samples; [ ] = remark or other dose. Potency is read from the fitted curve at half-maximal effect. Only part of the results is shown; count on the stated rates, not on these rows.

structure	Anthrax LT inh	Prx2 Sm inh
COc1ccc(C(=O)Nc2c(N)nc(SCC(=O)N3CCC(C)CC3)[nH]c2=O)cc1OC	?	>57
c1ccc(NCCCNc2ccccc2)cc1	?	>57
Cc1n[nH]c(C)c1S(=O)(=O)N1CCCC(C(=O)NC2CCCCC2)C1 (configuration not stated)	?	>57
COc1ccc(-c2nc3cnc(Oc4cccc(Cl)c4)nc3n(C[C@H]3CCCO3)c2=O)cc1	1.8%	>57
Cc1cccc(NC(=O)Nc2ccc(C#N)cc2)n1	-6.6%	>57
CCC(Sc1ncccc1C(=O)OCCN1CCCC1=O)C(=O)NCc1ccco1 (configuration not stated)	-13.8%	>57
CC1(C)CC(CCC(=O)Nc2ccccc2Cl)C(=O)O1 (configuration not stated)	6.6%	>57
COc1ccc(-c2nn(CCC(=O)O)cc2CCC(=O)O)cc1	-10.4%	>57
O=C(NCCc1ccccc1)C1CC(c2ccccc2O)=NO1 (configuration not stated)	?	>57
COc1ccc(-n2c(C)cc(C(=O)CSc3nnc(-c4cccs4)o3)c2C)cc1	?	>57
O=C(NCCN1CCCC1)C1COc2ccccc2O1 (configuration not stated)	4.8%	>57
C=CCNc1sc(C(=O)C(C)(C)C)c(N)c1C#N	?	>57
COc1ccccc1-c1cn(S(=O)(=O)c2ccc(F)cc2)nc1N	-5.5%	>57
CCOCCCNS(=O)(=O)c1ccc2c(c1)CCN2C(=O)CC	-7.3%	>57
CCSc1nnc(NC(=O)c2csc3c2CCC(C)C3)s1 (configuration not stated)	1.9%	>57
Cn1nnnc1SCC(=O)N1CCN(C(c2ccccc2)c2ccccc2)CC1	-1.6%	>57
COc1cc(O)c(NC(C)=O)c2nonc12	3.2%	>57
O/N=C(\c1ccc(Cl)cc1)c1cc2ccccc2o1	?	/
CCn1c2ccccc2c2nnc(SCC(=O)NCc3cccs3)nc21	3.9%	>57
CCOC(=O)c1cc2sccc2n1CC(=O)N1CCCc2ccccc21	?	/
CCn1c(CNC(=O)c2ccc(OC)cc2)nnc1SCC(=O)c1ccccc1	5.7%	>57
Cc1nc2c(-c3ccccc3)c(C)nn2c(C)c1CCC(=O)NCc1ccco1	-9.5%	>57
NC(=O)NO	5.4%	>57
CCOc1cccc(N2C(=O)CC(=O)NC2=O)c1	-2.3%	>57

A draw from above in order of count of non-hydrogen atoms, largest number first:
structure	Anthrax LT inh	Prx2 Sm inh
CCn1c(CNC(=O)c2ccc(OC)cc2)nnc1SCC(=O)c1ccccc1	5.7%	>57
COc1ccccc1-c1cn(S(=O)(=O)c2ccc(F)cc2)nc1N	-5.5%	>57
O/N=C(\c1ccc(Cl)cc1)c1cc2ccccc2o1	?	/
COc1cc(O)c(NC(C)=O)c2nonc12	3.2%	>57

(list continues)
structure	Anthrax LT inh	Prx2 Sm inh
CCOc1ccc(OCC)c(NC(=O)c2ccc(CNc3c(N4CCOCC4)c(=O)c3=O)cc2)c1	-6.4%	>57
Cc1nn(Cc2ccc(F)cc2)c(C)c1NC(=O)c1cc(-c2ccco2)on1	-26.0%	>57
Clc1ccc(OCc2nnc(SCCN3CCCCC3)n2Cc2ccco2)cc1	-23.1%	>57
CC1(C(=O)O)CCC(C(=O)NCCc2ccccc2)C1(C)C (configuration not stated)	3.4%	/
Cc1ccc(C2C3CSCC=C3C(C#N)=C(N)C2(C#N)C#N)cc1 (configuration not stated)	?	>57
Cc1ccc(-c2cc(C(=O)N3CCN(C(=O)c4ccco4)CC3)no2)cc1	5.7%	>57
CCn1c(SCC(=O)N2c3ccccc3Sc3ccccc32)nnc1-c1ccco1	-22.4%	>57
CCOc1ccc(C2CC(c3cccc(OC)c3OC)n3nnnc3N2)cc1Cl (configuration not stated)	-12.2%	>57
Cc1cc(NC(=O)CCC(=O)N(Cc2cccs2)C(C(=O)NC2CCCC2)c2ccncc2)no1 (configuration not stated)	-4.3%	>57
Cc1oc(-c2ccccc2Cl)nc1CSCC(=O)N1CCCC1	9.4%	>57
CCOC(=O)C(C(=O)OCC)C(C#N)c1ccccc1 (configuration not stated)	-9.5%	>57
COc1ccccc1C(=O)Nc1ccc2c(c1)OCCO2	0.8%	>57
Cc1cccc2cc(CN(Cc3ccc(F)cc3)Cc3nnnn3C3CCCC3)c(=O)[nH]c12	-23.5%	/
CN[C@H]1CC[C@@H](c2ccc(Cl)c(Cl)c2)c2ccccc21	10µM*	/
O=C(Nc1nnc(Cc2ccccc2)s1)c1cccs1	15.7%	>57
Cc1[nH]c2ccccc2c1Cc1nnc(SCC(N)=O)o1	-4.6%	>57
Clc1ccc(Cl)c2sc(N3CCOCC3)nc12	9.6%	>57
CCOC(=O)CSc1ncnc2c1cnn2-c1ccc(C)cc1	-5.4%	>57
COc1ccc(-c2noc(CCCOc3ccccc3)n2)cc1OC	-21.3%	>57
O=c1c2c(nc3c(-c4ccccc4)c[nH]n13)CCCC2	3.0%	/
C=CC(=O)NCNC(=O)C=C	-2.6%	/
CC1(C)C=Cc2c(c3ccccc3[nH]c2=O)O1	-4.8%	/
Cc1cn([C@H]2C[C@H](O)[C@@H](COC(N)=O)O2)c(=O)[nH]c1=O	-1.7%[8 µM]	>57
COc1ccc(CN(CCCN2CCOCC2)S(=O)(=O)N(C)C)cc1OC	-6.7%	>57
CSCCC(=O)Nc1ccc(C(C)=O)cc1	8.1%	/
O=C(C1CC1)N1CCC(c2nc(-c3ccc(S(=O)(=O)NCC4CCCO4)cc3)no2)CC1 (configuration not stated)	1.9%	>57
CC1CCN(CC(=O)NCc2ccccc2)CC1	/	>57
CCCCCNC(=O)c1ccc2c(=O)[nH]c3c(C(=O)NCC4CCCO4)sc(=S)n3c2c1 (configuration not stated)	12.3%	>57
COc1cc(=O)n(C)c2c(OC[C@@H](O)C(C)(C)O)cccc12	0.5%[3.58 µM]	>57&>57&>57
COCc1cc(CN2CCCC2)c(O)c2ncccc12	-5.0%	/
CC(=O)OC[C@@H]1O[C@H](C/C=N\O[C@@H](C)c2cc(-c3c(C)cc(C)cc3C)no2)C=C[C@@H]1OC(C)=O	-7.4%[1.6 µM]	/
Cc1cc(C)n(C(=O)c2cccc(S(=O)(=O)N3CCOCC3)c2)n1	-13.7%	>57
O=c1c(O)c(-c2ccccc2)oc2cc(O)cc(O)c12	-19.6%	>57
Nn1c(SCC(=O)N2CCCc3ccccc32)nnc1-c1ccc(Cl)cc1	10.2%	>57
NC(=O)C(Cc1ccccc1)NS(=O)(=O)c1ccc(N2CCCC2=O)cc1 (configuration not stated)	-1.7%	>57
C=CCn1c(SCC(=O)N2CCN(c3ccc(F)cc3)CC2)nnc1-c1cccs1	-23.8%	>57
CC(C)C[C@@H](CC(=O)N[C@@H](CCC(=O)O)CC(=O)O)NC(=O)[C@@H]1CNCC[C@H]1NC(=O)C[C@H](CCCN)NC(=O)C[C@H](CO)NC(=O)[C@@H]1CCCC[C@H]1N	-18.1%	>57
C=CCC(NCc1ccco1)c1ccc(OC)cc1OC (configuration not stated)	?	>57
COc1ccc(C2CC(=O)C3=C(C2)Nc2ncnn2C3c2ccccc2C)cc1 (configuration not stated)	?	>57
CCN(CC)CCCN(Cc1cc2cc3c(cc2[nH]c1=O)OCCO3)C(=O)Nc1ccc(F)cc1	-6.3%	>57
CCOC(=O)n1ccc(C(=O)Nc2ccccc2F)n1	8.3%	>57
CSCCC(NC(=O)c1cc(C(C)(C)C)oc1C)C(=O)O (configuration not stated)	10.7%	>57
CN(Cc1ccccc1)Cc1nc2c(c(=O)n(C)c(=O)n2C)n1Cc1ccc(Cl)cc1	/	>57
COc1ccc(OC)c(NC(=O)c2cc3n(n2)C(C(F)(F)F)CC(c2ccc4c(c2)OCO4)N3)c1 (configuration not stated)	-29.3%	>57
O=C(Nc1ccc(N2CCOCC2)cc1)C1CCCN(S(=O)(=O)c2ccccc2)C1 (configuration not stated)	-12.8%	>57
CC(=O)N(C)c1ccc(NC(=O)c2cnn(C)c2)cc1	-2.5%	>57
CN(C)CCSS(=O)(=O)O	-2.2%[8 µM]	>57
CC(OC(=O)c1ccco1)C(=O)NC1CCCCC1 (configuration not stated)	-18.5%	>57
COn1c(C)c(C(C)=O)c2c3nonc3ccc21	-28.9%	>57
CC(=O)CSc1ncnc2c1oc1ccccc12	-8.4%	>57
O=S(=O)(c1cccs1)N1CN(Cc2cccs2)c2nc3ccccc3nc21	?	>57
CCOC(=O)C1CCN(C(=O)C2CCN(S(=O)(=O)N3CCCC3)CC2)CC1	0.1%	>57
CCN(CC)c1nc2nonc2nc1N(CC)CC	-3.3%	>57
Cn1c(=O)c2c(SCc3cccnc3)nc(CC(C)(C)C)nc2n(C)c1=O	?	>57
O=C(NCc1ccco1)c1ccc(Br)c(S(=O)(=O)N2CCCCC2)c1	-24.2%	/
CC(=O)CCc1c(C)c2cccc(C)c2[nH]c1=O	-7.6%	>57
Cc1cc(C)cc(NC(=O)CN(C)S(=O)(=O)c2cnc[nH]2)c1	-0.9%	>57
C=C(C)c1cccc(C(C)(C)NC(=O)N2CCN(C)CC2)c1	-15.0%	>57
O=S(=O)(NCCOCCNS(=O)(=O)c1ccccc1)c1ccccc1	-12.4%	/
COC(=O)Cn1c(C(=O)N2CCCC2)cc2c1C[C@H]1CN(C(=O)c3ccccc3)[C@@](Cc3ccc(F)cc3)(C(=O)OC)[C@@H]21	?	>57

The list continues:
structure	Anthrax LT inh	Prx2 Sm inh
CCOc1ccc2nc(NC(=O)C(NS(=O)(=O)c3cccs3)C(C)C)sc2c1 (configuration not stated)	1.9%	>57
Cc1cc(C)n2cc(CSc3nnc(N)s3)nc2n1	/	>57
O=C(Nc1ccc(Cl)cc1C(=O)Nc1ccc(Br)cn1)c1ccco1	-19.4%	>57
Cc1ccccc1NC(=O)C(C#N)Cc1cccnc1 (configuration not stated)	-16.5%	>57
CCC(=O)N1CCN(CCN=Cc2c(O)n(C)c(=O)n(C)c2=O)CC1	-5.2%	>57
Cc1ccc(-c2noc(CN(C(=O)CCN3C(=O)c4ccccc4C3=O)C(C)C)n2)cc1	?	>57
Cc1nc(SCC(=O)N2CCN(C(=O)c3ccco3)CC2)c2c(C)c(C)sc2n1	-2.4%	>57
CC(=O)N1CCc2c(sc(NC(=O)c3ccc4c(c3)OCCO4)c2C#N)C1	?	/
COCCn1c(=O)c(-c2ccc(OC)cc2)nc2cnc(OC)nc21	-15.5%	>57
COc1cc(NC(=O)C2CCCN2C(=O)OCc2ccccc2)cc(OC)c1 (configuration not stated)	-0.5%	>57
O=C(NCCc1ccc(F)cc1)N1CCOCC1	10.0%	>57
COc1ccc(OC)c(Nc2cc(C(=O)NCCCN3CCOCC3)c3ccccc3n2)c1	-20.3%	>57
CCOc1ccccc1NC(=O)Cn1nnc(C(=O)Nc2ccc(C)cc2)c1N	4.2%	>57
Cc1nc2cc(N3CCOCC3)c(NC(=O)C3CC3)cc2c(=O)n1Cc1ccccc1	-2.8%	>57
Cc1cc(NC(=O)Cn2nc(-c3ccccc3F)ccc2=O)ccc1-n1cnnn1	-16.1%	>57
COCCn1c(=O)c(-c2ccccc2)nc2cnc(Oc3ccccc3)nc21	-2.7%	>57
O=c1c(-c2ccc(Cl)cc2)nc2cnc(Oc3ccccc3)nc2n1C1CC1	11.1%	>57
O=c1c(-c2ccccc2)nc2cnc(N3CCOCC3)nc2n1Cc1ccc(F)cc1	?	>57
CCCCP(=O)(c1ccccn1)c1ccccn1	12.2%	>57
COc1ccc(OC)c(C(=O)CSc2nnc(-c3cccnc3)n2C)c1	-3.9%	>57
CCOC(=O)C1CCCN(c2c(N3CCc4ccccc4C3)c(=O)c2=O)C1 (configuration not stated)	17.9%	>57
BrCC(Br)C1CCC(Br)C(Br)C1 (configuration not stated)	15.8µM*	/
CNC(=O)c1ccc2nc(NC(C)=O)sc2c1	-4.9%	>57
CC(C)(CNS(=O)(=O)c1ccc(Cl)cc1)N1CCCCC1	?	>57
CCOc1ccc(OCc2cccc(C(=O)N3CCCC3)c2)cc1	0.8%	>57
CC1CCCCN1C(=O)CSc1nnc(-c2c[nH]c3ccccc23)o1 (configuration not stated)	3.3%	>57
Cc1ccc(Cn2c(SCC(=O)Nc3cc(C)on3)nc3ccccc3c2=O)cc1	11.3%	>57
O=C(NCc1ccco1)C1CCN(S(=O)(=O)N2CCOCC2)CC1	-8.9%	>57
Cc1cn2c(-c3cccnc3)nnc2s1	2.0%	>57
Cc1ccccc1-c1cc(NCCN2CCOCC2)ncn1	?	>57
COc1ccccc1-c1nc(N2CCN(C)CC2)c2ccccc2n1	-7.1%	>57

Entries of single compounds, looked up by structure. Order of screens: Anthrax LT inh, Prx2 Sm inh
COc1ccccc1-c1nc(N2CCN(C)CC2)c2ccccc2n1 in the list: -7.1%, >57
CC1CCCCN1C(=O)CSc1nnc(-c2c[nH]c3ccccc23)o1 (configuration not stated) in the list: 3.3%, >57
